HPGD inh – HPGD (human) dehydrogenase inhibition; purified HPGD, NADH fluorescence kinetic, PGE2 substrate; hit rate 4.3% among 150,000; Potency, µM, for inactives: at the top dose activity change, negative = inhibition, usual class: inhibitors; P15428; active = well fitted inhibition curve with a large enough effect (not every such curve was filed as active); inconclusive = small, poorly fitted or top-dose-only effect, or another doubt; inactive = no such curve, though single readings can be large or run the other way;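 also: top concentration of the series not given in the record; plate controls included wells without enzyme; inactives centre near -10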
Target sequence (P15428 whole entry, looked up): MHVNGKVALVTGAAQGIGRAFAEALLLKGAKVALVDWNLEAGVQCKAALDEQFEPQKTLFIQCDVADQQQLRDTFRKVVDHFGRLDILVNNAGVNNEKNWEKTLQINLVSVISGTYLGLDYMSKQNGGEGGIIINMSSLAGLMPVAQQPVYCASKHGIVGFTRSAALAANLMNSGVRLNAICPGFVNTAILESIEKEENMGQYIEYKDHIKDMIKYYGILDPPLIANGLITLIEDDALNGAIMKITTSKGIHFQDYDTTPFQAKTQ
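20 nM HPGD preincubated 15 min at room temperature with compound in 50 mM Tris-HCl pH 8, 0.01% Tween 20. Started with 1 mM NAD+ and 30 uM prostaglandin E2; NADH fluorescence (360/450 nm) read 5 times over 30-s intervals, last minus first.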
* hit, by the source's call; ? = inconclusive; & = joins results of further samples. % is scaled to controls: 0 for no effect and ±100 for the full control effect; potency is read from the fitted curve at half-maximal effect.

Structure | HPGD inh
c1ccc(/C(=N/Nc2nc3ccccc3s2)c2ccccn2)cc1 | -6.2%
NCCNc1cccc2ccccc12 | -9.9%
Cc1sc2nc(CN3CCCC3)nc(Cl)c2c1C | -9.6%
Cc1nc(N2CCN(Cc3ccc4c(c3)OCO4)CC2)nc2c1C(=O)CC(c1ccco1)C2 (stereo not given) | -15.9%
CC(C)Sc1nc2c(c(=O)n1C)SC(C)C2 (stereo not given) | -2.0%
CCN1C(=O)c2ccccc2S(=O)c2ccc(C(=O)N3CCCC3)cc21 (stereo not given) | 6.0%
CCOc1ccc(S(=O)(=O)N(C)C)cc1-c1nc2c(C(C)(C)C)nn(C)c2c(=O)[nH]1 | -16.0%
C[C@@H](CN(C)C[C@H]1C(=O)O[C@@H]2C[C@@]3(C)CCC[C@]4(CO4)C3CC21)[C@H](O)c1ccccc1 (stereo not given in full) | -2.1%
OCCN1CCN(C2Cc3cc(Cl)ccc3Sc3ccc(Cl)cc32)CC1 (stereo not given) (tested in a mixture with another compound) | -3.1%
CCCN1CNC(=S)N(c2cc(C)ccc2C)C1 | -8.3%
Cc1cccc(N(C)S(=O)(=O)c2ccc3[nH]c(=O)c(=O)[nH]c3c2)c1 | 14.1µM*
COc1cc(NS(=O)(=O)c2ccc(NC(=O)C34CC5CC(CC(C5)C3)C4)cc2)ncn1 | -2.7%
CC(C)OP(=O)(c1ccccc1)c1ccccc1 | 3.4%
Clc1ccccc1CNCC1CCC(CNCc2ccccc2Cl)CC1 (stereo not given) | -6.0%
CC1CCCCC1NC(=S)NC(=O)c1ccccc1Br (stereo not given) | -18.0%

Some of the entries so far, field by field.
COc1cc(NS(=O)(=O)c2ccc(NC(=O)C34CC5CC(CC(C5)C3)C4)cc2)ncn1
  HPGD inh = -2.7%
CC(C)OP(=O)(c1ccccc1)c1ccccc1
  HPGD inh = 3.4%
Clc1ccccc1CNCC1CCC(CNCc2ccccc2Cl)CC1 (stereo not given)
  HPGD inh = -6.0%
CC1CCCCC1NC(=S)NC(=O)c1ccccc1Br (stereo not given)
  HPGD inh = -18.0%

Next section:
Structure | HPGD inh
Fc1cnc(N2CCc3ccccc32)nc1N1CCc2ccccc21 | ?
CCOc1ccc(C(=O)c2ccc(O)c(O)c2O)cc1 | ?
CC(C)CCSc1nc2c(c(=O)[nH]c(=O)n2C)n1CCc1ccccc1 | -13.8%
C/C(=N\N1CCN(C2c3ccccc3-c3ccccc32)CC1)c1ccco1 | -10.4%
CCOC(=O)c1sc(=S)n(-c2cccc(C(F)(F)F)c2)c1SC | -19.2%
CCOc1ccc2nc(N/C(N)=N/C(=S)Nc3ccc(C)c(C)c3)nc(C)c2c1 | -14.9%
CCOC(=O)c1sc(N(Cc2ccccc2)C(=O)COC(=O)c2ccccc2O)nc1C | 20µM*
Oc1c(Cl)cc(Cl)cc1CNc1ccc(Br)cn1 | ?
C=CCOc1ccc(CNC(C)(C)CO)cc1OCC | -11.0%
CCOC(=O)N1CCN(C(=O)C2CCN(S(=O)(=O)c3ccc(Cl)cc3)CC2)CC1 | -1.8%
CC(C)N1C(=O)/C(=C/c2nc3ccccc3c(=O)n2-c2ccccc2)c2ccccc21 | -10.0%
CCOc1cccc(-c2nnc3sc(-c4ccc(C)cc4)nn23)c1 | -9.8%
COc1ccc(/C=N/NC(=O)c2ccc(CSc3nc(C)cc(C)n3)cc2)cc1O | ?
Cc1ccc(-c2nn(-c3ccccc3)cc2C(=O)OCC(=O)Nc2ncc(Cl)cc2Cl)cc1 | -16.3%
O=C(Cc1cccs1)Nc1nnc(SCc2ccc(F)cc2)s1 | -7.5%

The list continues.
Structure | HPGD inh
CCOC(=O)C1=C(Nc2ccccc2)OCC1=O | -10.7%
CCOC(=O)C1=C(C)NC(SCc2cc(=O)[nH][nH]2)=C(C#N)C1c1cccs1 (stereo not given) | ?
CCOC(=O)C1CCCN(c2c(Nc3cc(C)cc(C)c3)c(=O)c2=O)C1 (stereo not given) | -1.9%
CN1CCN(c2ncccc2S(=O)(=O)N2CCCCC2)CC1 | -0.8%
Cc1cc(NC(=O)C2COc3ccccc3O2)no1 (stereo not given) | -12.4%
Cc1ccc(CN(c2ccc(C(=O)NCc3ccc4c(c3)OCO4)cc2)S(C)(=O)=O)cc1 | -10.6%
Cc1ccc2nc(NC3=NCN(Cc4cccnc4)CN3)nc(C)c2c1 | -4.7%
CCCOc1ccc(NC(=O)C2CC(=O)N/C(=N/N=C(\C)CCc3ccc4c(c3)OCO4)S2)cc1 (stereo not given) | -11.1%
CN1C2CCC1CC(OC(=O)c1c[nH]c3ccccc13)C2 (stereo not given) | -9.6%&-4.0%
Cc1cc(-c2ccccc2)nc2[nH]n(-c3ccccc3)c(=O)c12 | -9.7%
COc1ccc(OC)c(NC(=O)c2cnn(-c3ccccc3Cl)c2NC(=O)c2ccco2)c1 | -13.4%
NS(=O)(=O)c1cc2c(cc1Cl)NCNS2(=O)=O | -5.8%&-4.8%&-10.2%&-9.9%&-6.4%
O=S(=O)(c1ccc(F)cc1)N(CCO)CC(O)Cn1c2ccccc2c2ccccc21 (stereo not given) | -3.0%
CC(CC1CC(C)(C)OC1=O)C(=O)Nc1ccc([N+](=O)[O-])cc1 (stereo not given) | ?
O=C(Nc1cc2c(cc1Cl)OCCO2)c1ccco1 | -2.5%

New compounds follow.
Structure | HPGD inh
COc1ccc(CN2CCCC(C(=O)N3CCCC3)C2)cc1 (stereo not given) | -4.1%
CC(=O)NC1CCN(C(=O)N2CCCC2)CC1 | -5.6%
Cc1ccc(-c2nnc3n2N=C(c2ccc(Br)cc2)CS3)cc1 | -12.9%
COc1cccc(OCc2nnc(SCC(=O)NCc3ccco3)n2C)c1 | -7.6%
O=C(CCCN1C(=O)c2ccccc2C1=O)Oc1ccc(F)cc1 | -11.2%
CCOC(=O)c1cccc(NC(=O)CSc2nnc(COc3ccc(Cl)cc3)o2)c1 | -7.0%
O=C(NCN1CCc2ccccc2C1)c1ccccc1 | -11.3%
Cc1cc(C(F)(F)F)n2ncc(-c3ccccc3)c2n1 | -0.6%
Cc1ccc(N/C=C2\CCCCC2=O)c(C)c1 | -18.6%
Cc1cc(=O)oc2cc(OC(C)C(=O)Nc3ccc(N4CCOCC4)cc3)ccc12 (stereo not given) | ?
O=C(CCSc1ccc(Cl)cc1)N1CCOCC1 | -9.8%
COCCn1c(Cc2ccccc2)nnc1SCC(=O)N1CCCCC1C (stereo not given) | -9.7%
CCNC(=S)NNC(=O)c1cccnc1 | -5.7%
Cn1ccnc1 | -2.2%
O=C(NC(NC1CCS(=O)(=O)C1)C(Cl)(Cl)Cl)c1ccc(Br)cc1 (stereo not given) | -0.9%

The results go on.
Structure | HPGD inh
CCSc1nnc(NC(=O)C(C)(C)C)s1 | -4.9%
CCOc1ccccc1NC(=O)CCCN1C(=S)NC(C)(C)CC1C (stereo not given) | -6.6%
C=C(C)c1cccc(C(C)(C)NC(=O)Nc2ccc(C(C)=O)cc2)c1 | -2.3%
CCN(CC)CCCN1C(=O)C(O)=C(C(=O)c2sc(C)nc2C)C1c1ccc(C)o1 (stereo not given) | -3.6%
Cc1ccc(O)c(C(=O)c2cnn(C(=O)COc3ccc(Cl)cc3)c2)c1 | -29.4%
COc1ccc(Cl)cc1NC(=O)c1cnc2sccn2c1=O | ?
Cc1ccc(-c2nnn(CC(=O)NCCC3=CCCCC3)n2)cc1 | -13.2%
O=C(Nc1c2c(nc3c1CCC3)CCCC2)c1ccccn1 | -3.7%
CC1(C)Cc2c(c(N3CCCC3)[nH]c(=S)c2C#N)CO1 | -16.6%
Cc1ccc(S(=O)(=O)N(C)CC(=O)OCc2nnc(-c3ccccc3)o2)cc1 | 25.1µM*
CCN(CCCNC(=O)CCNC(=O)Cn1ccc2ccccc2c1=O)c1ccccc1 | -25.6%
O=C(Nc1cccnc1)/C(N=Nc1cccnc1)=C(\O)c1ccccc1 | -26.0%
O=C(c1ccncc1)N1CCC2(CCCN(C(c3ccccc3)c3ccccc3)C2)CC1 | -4.8%
CCCn1c2c(c(O)c(C(=O)Nc3ccc(OC)cc3)c1=O)CCCC2 | ?
Cc1sc(NC(=O)c2ccc(Br)s2)c(C(N)=O)c1C | -24.2%

Next structures follow.
Structure | HPGD inh
CCCc1nnc(SCC(=O)N2CCCCC2)n1CC1CCCO1 (stereo not given) | -4.3%
COc1ccc(CNC(=O)C2CC(c3ccc(F)cc3)=NO2)cc1 (stereo not given) | -4.1%
CSC1=NSC2=NC(=O)/C(=C/c3coc4ccc(O)cc4c3=O)C(=N)N12 | 22.4µM*
Cc1ccc(-c2nn(CC(=O)O)c(=O)c3ccccc23)cc1 | -0.7%
COc1ccccc1NS(=O)(=O)c1cc(NC(=O)/C=C/c2cccs2)ccc1N1CCOCC1 | ?
COc1ccc(CNC2C[C@H]3CCCC(=O)N4CC[C@@H](C2)[C@@H]34)cc1 (stereo not given in full) | -6.4%
CC(C)c1ccc(NC(=O)c2snc3ccc(Cl)cc23)cc1 | ?
CC1CCc2c(sc(NC(=O)C3c4ccccc4Oc4ccccc43)c2C(N)=O)C1 (stereo not given) | -21.8%
CCOC(=O)c1ccc(Nc2cc(C)nc3ncnn23)cc1 | -24.3%
CCOC(=O)C(=O)Nc1ccccc1C#N | -13.3%
CC(=O)Nc1ccc(NS(=O)(=O)C(F)(F)F)cc1 | -14.1%
COc1ccc(CNC(=O)c2cc3c(s2)CS(=O)C3)cc1 (stereo not given) | -2.6%
COc1cc2c(cc1OC)C(c1ccc(-c3ccccc3Cl)o1)=NCC2 | -21.2%
COc1ccc(C2CC2/C(C)=N/OC(=O)c2cccs2)cc1 (stereo not given) | 22.4µM*
CCn1c(SCC(=O)N=Nc2c(O)[nH]c3ccccc23)nc2ccccc21 | -13.3%

(listing goes on)
Structure | HPGD inh
COC(=O)c1cc(CSc2nc3ccccc3[nH]2)oc1C | -6.4%
CC(SCc1ccccc1)C(=O)N/N=C/c1cccs1 (stereo not given) | -10.8%
COc1ccc(NC(=O)c2ccc(=O)[nH]c2)cc1S(=O)(=O)N1CCCCC1 | -6.2%
CCOc1cc(N2CCOCC2)c(OCC)cc1NC(=O)COc1ncnc2ccc(Br)cc12 | -3.2%
CCS(=O)(=O)N1Cc2ccccc2CC1C(=O)NCC12CC3CC(CC(C3)C1)C2 (stereo not given) | -1.4%
CCN(CC)CCN1C(=O)C(=O)/C(=C(/O)c2c(C)[nH]c(C(=O)OC)c2C)C1c1cccc(OC)c1 (stereo not given) | -5.8%
Cc1cccc2cc(CN(Cc3nnnn3C3CCCCC3)C3CCCC3)c3nnnn3c12 | -2.2%
COc1cc(/C=N/Nc2nn3cnnc3c3ccccc23)ccc1O | ?
O=C1OC2(CCCCC2)OC(=O)C1=CNc1nccs1 | 1.2%
Cc1nc(NC(=O)/C=C/c2ccccc2)sc1C(=O)Nc1ccccc1Cl | -16.0%
CN(C)NC(=S)Nc1ccc(Cl)cc1 | -1.2%
C/C(Cn1nc([N+](=O)[O-])cc1C)=N\NC(=O)c1ccc(C(C)(C)C)cc1 | -8.6%
O=C1CC(NCCC2=CCCCC2)C(=O)N1c1cccc(Cl)c1Cl (stereo not given) | -14.8%
CCOc1cc(/C=N/NC(=O)C(=O)NC2CC2)cc(Br)c1O | -17.2%
COCc1cc(C)nc(NCCO)c1C#N | ?

Next part:
Structure | HPGD inh
COc1ccc(/C=C2\C(=O)OCc3cc(OC)c(OC)cc32)cc1OC | -8.8%
O=[N+]([O-])/C=C/c1cn(Cc2ccccc2)c2ccccc12 | -24.9%
CCOC(=O)N1CCC(NCCNC(=O)c2ccccc2)CC1 | -3.6%
NC(=O)c1ccc2c(c1)OCCO2 | -16.5%
CCCC(C(=O)NCc1ccco1)N(C(=O)CNS(=O)(=O)c1ccccc1)c1ccccc1OC (stereo not given) | -15.7%
COc1ccc(OC(=O)c2cccc([N+](=O)[O-])c2)c(C(=O)/C=C/c2cccs2)c1 | -21.6%
c1csc(-c2nc3ccccc3[nH]2)c1 | ?
O=C(CN1CCN(Cc2ccc3c(c2)OCO3)CC1)Nc1ccc2c(c1)OCCO2 | -8.0%
Cc1cc(C(=O)CSc2nnc3c(Cl)cc(Cl)cn23)c(C)n1C | -7.6%
COc1ccc(CCNC(=O)c2cc(C(=O)c3cc(C)ccc3O)cn(CCc3ccc(OC)cc3)c2=O)cc1 | -16.7%
CSc1nnc(-c2cnccn2)n1C | -17.0%
COc1ccc(C(=O)CN2CCN(S(=O)(=O)c3cccc([N+](=O)[O-])c3)CC2)cc1OC | ?
CCOc1ccccc1C(=O)NC1CC2CCCC(C1)N2C1CC1 (stereo not given) | -4.9%
CCNc1nc(NC(C)C)nc(Oc2ccc(OCCOc3ccccc3)nn2)n1 | 0.4%
CCCN(CC1CC1)C(=O)COC(=O)c1ccc(CNS(=O)(=O)c2ccc(F)c(Cl)c2)cc1 | -29.6%

Remaining list, next part.
Structure | HPGD inh
CCC1(C)Cc2nc3[nH]c(=S)n(-c4ccccc4)c(=O)c3cc2CO1 (stereo not given) | 0.6%
O=C(Nc1ccc(S(=O)(=O)Nc2nccs2)cc1)c1cc(-c2ccccc2)nc2ccccc12 | -18.3%
Cc1sc2nc3ccc(NCc4ccco4)nn3c(=O)c2c1C | ?
CC(=O)c1cccc(N(C(=O)c2ccco2)C(C(=O)NC2CCCC2)c2ccncc2)c1 (stereo not given) | -15.5%
CCOC(=O)CN(C(=O)CSc1nnc(-c2ccncc2)n1CCCN(C)C)c1ccccc1 | -12.5%
CCOc1ccc(NC(=O)c2ccc3nccnc3c2)cc1 | -21.7%
CS(=O)(=O)C1=C(O)C(=O)N(c2ccccc2)C1c1ccccc1 (stereo not given) | -7.8%

Compound activity as filed in PubChem BioAssay.

This is a subset, so the mix of outcomes need not match the whole.
